# Menin MLL FP FL: menin-MLL binding inhibition, fluorescein peptide; Fluorescence polarization, fluorescein-MLL peptide displacement from menin; FP activity change, % at 61.4 µM; 290,000 tested, under 10 active; AID 1766; inconclusive = falling polarisation curve, or a change in total fluorescence; inactive = total fluorescence flat and polarisation flat or rising; no compound was filed as active; the % refers to the polarisation; negative = inhibition;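 also: % of control where 0% means no effect; inhibitors lower the polarisation; unlabelled MLL peptide was the positive control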
# D2 potentiator: potentiates the human D2 dopamine receptor allosterically. P14416. DiscoveRx D2 beta-arrestin cells, luminescence, 90 min; 100% = 57 uM dopamine signal. potentiation, % (concentration not given with the values). hit rate 0.23% among 360,000. AID 624464; active = potentiation of 50% or more; inconclusive = 30% to 50%; inactive = 30% or less;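 also: compound concentration not given in the record; tested on top of an EC20 dose of dopamine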
# Target sequence (P14416 whole entry, looked up): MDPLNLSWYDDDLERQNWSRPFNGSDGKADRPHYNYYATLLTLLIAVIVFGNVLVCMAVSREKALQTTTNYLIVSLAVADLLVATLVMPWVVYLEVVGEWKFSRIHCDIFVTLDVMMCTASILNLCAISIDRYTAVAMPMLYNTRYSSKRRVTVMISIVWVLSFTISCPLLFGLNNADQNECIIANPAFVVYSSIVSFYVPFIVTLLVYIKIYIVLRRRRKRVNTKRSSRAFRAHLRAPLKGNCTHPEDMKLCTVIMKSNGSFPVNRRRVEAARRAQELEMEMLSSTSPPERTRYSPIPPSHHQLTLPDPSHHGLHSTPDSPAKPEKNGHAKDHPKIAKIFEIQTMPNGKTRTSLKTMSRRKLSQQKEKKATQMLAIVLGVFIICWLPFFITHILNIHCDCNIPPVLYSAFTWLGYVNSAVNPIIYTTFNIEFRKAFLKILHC
#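 PathHunter D2 cells, attached overnight at 37 deg C, received compound in DMSO plus dopamine at EC20 (50 nM final) for 90 min at 37 deg C. Beta-arrestin recruitment was read as luminescence after 1 h with detection reagent at ambient temperature.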
# gsp agonist: gsp mutant agonism | gsp mutant cells, cAMP HTRF, 30 min; control for the full effect not named in the record | Potency, µM (series often up to 76.9 µM), for inactives: at the top dose activation (cAMP increase), usual class: activators | hit rate 0.13% among 340,000; active = well fitted activation curve with a large enough effect; inconclusive = small, poorly fitted or top-dose-only effect, or another doubt; inactive = no such curve, though single readings can be large or run the other way; cell line not stated here;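 also: phosphodiesterase inhibitor Ro 20-1724 added with compounds to block cAMP breakdown; potency is read from the fitted curve at half-maximal effect; nearly all actives have a fitted effect of over 60% in size; about a fifth of the inactives were tested at one dose only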
#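 Cells in DMEM/10% FBS with G418 were pretreated with compounds in DMSO plus […] (300 uM stock) for 30 min at 37C. cAMP was measured by HTRF (cAMP-d2 plus anti-cAMP antibody-K) after 30 min at room temperature.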
# ClpP mod: qHTS Assay for Activators of ClpP; purified B. subtilis ClpP, FRET peptide cleavage, 20 min; Potency, µM (highest dose often 57.5 µM), for inactives: at the top dose activity change, negative = active; hit rate 1.9% among 340,000; AID 651965, 2013; active = well fitted falling curve with a large enough effect; inconclusive = small, poorly fitted or top-dose-only effect; inactive = no such curve, though single readings can be large or run the other way; also: potency is read from the fitted curve at half-maximal effect; the source files actives as falling curves though it sought activators and does not explain the sign; nearly all actives have a fitted effect of over 65% in size; many hits overshoot -100%
# Target sequence (P80244 whole entry, looked up): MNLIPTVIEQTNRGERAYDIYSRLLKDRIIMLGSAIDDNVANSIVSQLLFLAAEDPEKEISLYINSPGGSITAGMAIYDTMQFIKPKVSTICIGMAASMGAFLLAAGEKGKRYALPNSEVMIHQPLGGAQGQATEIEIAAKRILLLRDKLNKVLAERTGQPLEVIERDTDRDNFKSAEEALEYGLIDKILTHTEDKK
#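 Buffer: 100 mM Tris/HCl pH8, 100 mM KCl, 0.05% low protease BSA, 2.5% glycerol, 0.01% Tween-20. ClpP 10 microg/mL final; 20 min RT; delta FRET normalized to ADEP and DMSO controls.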
# gsp antagonist: antagonists of gsp mutant (McCune-Albright syndrome); hit rate 0.4% among 340,000; gsp-mutant cells, cAMP HTRF, 30 min; control for the full effect not named in the record; Potency, µM (doses to about 76.9 µM), for inactives: at the top dose activity change, negative = inhibition, hits mostly inhibitors; active = falling curve of any shape with a large fitted effect; inconclusive = falling curve, mostly with a smaller effect; inactive = flat or rising curve; cell line not stated here;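 also: intracellular cAMP measured with PDE inhibitor Ro 20-1724 present during compound exposure; potency is read from the fitted curve at half-maximal effect; % is scaled to controls: 0 for no effect and ±100 for the full control effect; nearly all actives have a fitted effect of over 65% in size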
#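 G418-selected cells were plated in DMEM/10% FBS for 16-24 h at 37C, then treated with compounds plus the PDE inhibitor […] (300 uM solution added) for 30 min at 37C. Intracellular cAMP was measured by HTRF after 30 min lysis at room temperature.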
# TRPV1 potentiator: human TRPV1 potentiation. hit rate 0.02% among 320,000. AID 540277. TRPV1-expressing cells, Fluo-8 calcium influx, capsaicin EC20 potentiation; host cell line not named in the record; control for the full effect not named in the record. potentiation, % at 8.33 µM; active means potentiation above 80%; inconclusive means 30% to 80%; inactive means below 30%; also: 0% is about no effect
#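 Fluo-8 calcium influx in TRPV1-expressing cells, kinetic read (ex 480/em 520 nm). Compound added and read 3 min for agonist activity, followed by capsaicin at EC20 final and 2 min further read for enhancement.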
# Sfp inh: inhibitors of Bacillus subtilis Sfp phosphopantetheinyl transferase. Q9F4F7. Biochemical Sfp PPTase activity, qHTS. Potency, µM, for inactives: max response, negative = inhibition, usual class: inhibitors. hit rate 3.5% among 310,000. AID 1490; active = well fitted inhibition curve with a large enough effect; inconclusive = small, poorly fitted or top-dose-only effect, or another doubt; inactive = no such curve, though single readings can be large or run the other way;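 also: the enzyme is Sfp with the accession as filed and its product quenches rhodamine fluorescence; potency is read from the fitted curve at half-maximal effect; 0% = enzyme reaction without inhibitor and -100% = no enzyme wells; top concentration of the series not given in the record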
#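 Buffer: 50 mM Hepes-Na pH 7.6, 10 mM MgCl2, 0.01% Nonidet P-40, 0.01% BSA. Enzyme 15 nM, pre-exposed to compound 15 min; substrates then added and fluorescence change tracked over 30 min.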
# * marks the source's active call; other numbers are inactive results; ? = inconclusive; . = no result given; & = joins results of further samples; [ ] = another dose, or the depositor's remark.
compound	Menin MLL FP FL	D2 potentiator	gsp agonist	ClpP mod	gsp antagonist	TRPV1 potentiator	Sfp inh
CCOc1ccc(C2C(C(=O)c3cccs3)=C(O)C(=O)N2Cc2cccnc2)cc1OC (stereo not given)	1.1	-15	7%[15.4 µM]	.	-8%	2	-3%
CC(=O)c1c(C)[nH]c(C(=O)OCc2nc3ccsc3c(=O)[nH]2)c1C	.	-23	?	1.3%	7%	7	.
CCOc1ccc(CCNC(=O)COC(=O)c2[nH]c(C)c(C(C)=O)c2C)cc1OCC	.	-14	?	-3.3%	.	.	.
COc1ccc(C(=O)OC(C)C(=O)NC2CCCc3ccccc32)cc1OC (stereo not given)	.	-2	1%	-9.8%	-2%	-12	.
Cc1cccc(C(=O)OCC(=O)N(CC(C)C)c2c(N)n(Cc3ccccc3)c(=O)[nH]c2=O)c1C	.	2	9%	-2.4%	-6%	-10	.
COc1ccc(-n2nc([N+](=O)[O-])c(=NCc3ccc4c(c3)OCO4)n2O)cc1	1.5	122*	-38%[inhibitor]	-0.7%	11%	15	-2%
S=c1[nH]ccn1-c1ccc(Cl)cc1	2.2	-11	20%[15.4 µM]	1.2%	12%	11	3%
O=C(Nc1cc(Cl)ccn1)C1(c2ccccc2)CC1(Cl)Cl (stereo not given)	-1.6	-5	29%	.	-19%	.	21%
O=C(O)c1ccc(NC(=S)NC(NC(=O)c2ccco2)C(Cl)(Cl)Cl)cc1 (stereo not given)	-1.2	-12	-29%	-0.6%	8%	5	-7%
O=C(NCCc1ccccc1)C1=COCCO1	.	-27	16%[15.4 µM]	.	11%	-15	.
Cc1ccc(SCC(=O)Nc2ccc(N3CCN(C)CC3)c(F)c2)cc1	5.0	-33	6%	?	10%	-7	-8%
O=C(NCc1cccnc1)c1ccc2c(c1)OCO2	1.7	-1	-16%	-5.3%	16%	-5	18%
NS(=O)(=O)c1ccc(N/N=C/c2ccncc2)cc1	2.8	1	-25%	.	0%	-12	10%
COc1ccc(NC(=O)c2ccc(-c3ccccc3C(F)(F)F)o2)cc1	1.3	-32	41%	-11%	-11%	-4	-9%
COc1ccc(CNC(=O)CN(C(=O)c2csnn2)c2cccc3c2CCCC3)cc1	-2.3	1	9%[15.4 µM]	1.1%	-29%	7	19%
CC(C)CNC(=O)C1CCN(CC2CCCCC2)CC1	-6.0	-8	6%	.	14%	-6	-3%
CN(C)CCCNC(CC(=O)Nc1cccc([N+](=O)[O-])c1)C(=O)O (stereo not given)	8.8	-17	-3%	1.3%	-3%	4	-22%
Cc1nn(-c2ccccc2)c(C)c1NC(=O)COC(=O)c1ccc(NC(=O)CC#N)cc1	.	1	2%[15.4 µM]	-5.5%	5%	.	.
O=C(CSc1nnc(-c2ccccc2)o1)NC(=O)Cc1ccccc1	.	7	5%	-4.1%	2%	.	.
CN(Cc1cn[nH]c1-c1ccc2c(c1)OCO2)C1CCOCC1	0.8	-9	28%	.	10%	0	12%
CCc1noc(C)c1C(=O)OC(C)C(=O)Nc1ccc(Cl)cn1 (stereo not given)	.	1	?	0.9%	3%	-7	.
O=C(COc1cccc(C(F)(F)F)c1)Nc1ccccc1N1CCCCC1	.	-10	-1%	-1.7%	-3%	-8	.
CCc1cc2c(NC(C(=O)O)C(C)C)ncnc2s1 (stereo not given)	3.9	0	3%	-1.7%	-3%	-4	20%
COc1cc2c(cc1NC(=O)/C=C/c1ccccc1)oc1ccccc12	2.8	4	?	-2.2%	-15%	-2	-19%
CC(C)n1cnc2c(N(C)c3cccc(Cl)c3)nc(N(CCO)CCO)nc21	1.0	-6	?	-0.1%	18%	-28	-12%
CC(C)(C)c1ccc(OCC(=O)N2CCN(c3ccccn3)CC2)cc1	.	2	?	-17%	3%	6	.
CCOC(=O)c1cnc2c(cnn2C)c1NCCCn1ccnc1	-4.3	0	4%[15.4 µM]	.	-6%	-3	5%
COc1ccc(OC)c(NC(=O)C(=O)NCCC2=CCCCC2)c1	-0.4	-2	-35%[inhibitor]	-3.2%	3%	10	-4%
COC(=O)CNC(c1ccccc1)c1cc(C)ccc1NC(=O)CNC(=O)OCc1ccccc1 (stereo not given)	1.5	-18	-23%	-1.0%	-5%	-22	-3%
O=c1[nH]c(=O)c2[nH]c(=S)n(-c3ccccc3)c2[nH]1	.	-8	-2%	.	-6%	.	.
CCCCn1c(N)c(N(CC(C)C)C(=O)CC2CCCCC2)c(=O)[nH]c1=O	.	-16	-9%[15.4 µM]	-2.7%	8%	28	.
O=[N+]([O-])c1ccccc1S(=O)(=O)N1CCN(CC2CC3C=CC2C3)CC1 (stereo not given)	1.3	-11	-15%	.	-8%	5	-15%
CC(Sc1nnnn1-c1ccccc1)C(=O)Nc1ccccc1-c1ccccc1 (stereo not given)	3.6	-7	-22%	3.5%	-19%	-2	16%
CCC(=NNC(=O)c1cccc(S(=O)(=O)N2CCOCC2)c1)c1ccccc1	.	-2	-30%	0.2%	2%	.	.
CCN(CC)CCCCN1c2ccccc2Sc2ccccc21	-1.3	-20	?	.	11%	3	-6%
Clc1nc2ccccc2cc1-c1nnn(-c2ccccc2Br)n1	.	-2	-1%	-7.1%	8%	.	.
COc1cccc(-c2nc(CS(=O)(=O)CC(=O)Nc3ccccc3Br)c(C)o2)c1	2.8	-8	?	.	-16%	-17	4%
N#CCCn1cc(/C=N/NC(=O)c2ccncc2)c(-c2ccc(F)cc2)n1	2.0	0	-101%[inhibitor]	-1.0%	-1%	-11	5%
O=C(N/N=C/c1ccc(-c2cccc(C(F)(F)F)c2)o1)c1ccccc1O	5.0	-21	-15%	-3.5%	7%	9	-19%
Cc1cccc(C)c1NC(=S)N(CCN1CCCCCC1)Cc1ccco1	-1.5	-20	-21%[15.4 µM]	.	-6%	-28	-5%
COc1ccc(/C=C/C(=O)OCC(=O)N2CCCCCC2)c(OC)c1	.	-1	?	-23%	-9%	-2	.
O=C(Nc1cccc(-c2nnc(-c3ccco3)o2)c1)C(c1ccccc1)c1ccccc1	0.8	-1	?	11µM*	-12%	10	3%
O=S1(=O)CCOC[C@H](Cc2ccccc2)N1Cc1ccccc1	.	0	-4%	-0.8%	-5%	.	.
Cc1ccc(NC(=O)c2sccc2C)nc1	.	0	?	0.0%	5%	-10	-9%
CN(C)c1nc(=S)nc(NCc2ccccc2)[nH]1	-5.4	-9	-2%[15.4 µM]	0.3%	6%	25	4%
CC(C)N1CCN(CC#Cc2ccccc2)CC1CCO (stereo not given)	-0.2	-10	0%	1.2%	-1%	7	-5%
Cn1nc(C(=O)NCCc2ccc(Cl)cc2)c2c1-c1ccccc1S(=O)(=O)C2	-3.2	-10	-43%[inhibitor]	-11%	?	7	14%
N#CC1(c2cccc(Br)c2)C(=O)Nc2ccccc21 (stereo not given)	.	-15	-9%[15.4 µM]	.	10%	.	.
CNC(=O)c1[nH]cnc1C(=O)NCC(=O)OC(C)(C)C	2.8	-7	22%	-1.5%	9%	-1	24%
COC(=O)CSc1ccsc1C(=O)O	-1.3	-1	-23%	.	2%	0	-9%
COC(=O)c1cccc(NC(=O)Nc2ccccc2OC)c1	-1.2	-10	3%[15.4 µM]	.	-8%	-13	-2%
O=C(NCCN1CCOCC1)c1cc(-c2cccs2)on1	0.5	-9	9%	-20%	4%	6	4%
COc1cc(-c2nc(-c3ccccc3)c(-c3cc([N+](=O)[O-])ccc3C)[nH]2)cc(OC)c1OC	2.8	-20	-38%[inhibitor]	0.9%	-2%	17	5%
CCN(CC)c1ccc(/C=N/N2CCN(Cc3ccc(C)cc3)CC2)c(O)c1	3.2	-8	30%	-1.2%	0%	2	2%
CCOC(=O)c1sc2nc(SCC#N)n(CC3CCCO3)c(=O)c2c1C (stereo not given)	3.5	-1	-82%[inhibitor]	3.9%	-1%	8	-8%
CC(=O)NCCCOc1ccc([N+](=O)[O-])cc1Cl	8.3	-22	-6%	-1.6%	-11%	-14	4%

# Next part:
compound	Menin MLL FP FL	D2 potentiator	gsp agonist	ClpP mod	gsp antagonist	TRPV1 potentiator	Sfp inh
CN(C)CCc1cc2c(c3c1ccc1ccccc13)OCO2	-2.7&0.9	-10	24%	4.7%	19%	4	-5%&-20%
CCc1ccccc1NS(=O)(=O)c1ccc2[nH]cc(C(=O)NCC3CCCO3)c(=O)c2c1 (stereo not given)	1.8	7	11%	-26%	-9%	7	13%
COc1ccccc1-n1ccnc(SCC(=O)NCc2ccccc2)c1=O	.	-35	3%[15.4 µM]	1.0%	-10%	12	.
CCOC(=O)c1[nH]c2cc(OC)c(OC)cc2c1NC(=O)CN1CCN(c2ccc(OC)cc2)C(C)C1 (stereo not given)	2.0	.	.	.	.	3	8%
O=[N+]([O-])c1ccc(S(=O)(=O)Nc2ccc(-c3csc(-c4ccccc4)n3)cc2)cc1	?	.	.	.	.	-5	15%
OCCO	.	0	.	-2.5%	9%	.	.
NC(=O)c1ccc(CN2CCc3ccccc3C2)cc1	0.8	-10	-121%[inhibitor]	.	9%	-17	17%
Cc1ccc(NC(=O)/C=N/OCC(=O)NCc2ccccc2Cl)cc1	-1.1	-6	26%	0.2%	-6%	8	16%
Cc1nc(Nc2cccc(O)c2)c2c3c(sc2n1)CCC3	-2.3	-3	-23%[15.4 µM]	.	-11%	1	1%
COc1ccc(Br)cc1CNC(=O)C1CCN(S(=O)(=O)N2CCC(C)CC2)CC1	1.8	-9	-10%	2.5%	-20%	1	8%
COc1ccc(N2CC(C(=O)NCCCN3CCOCC3)CC2=O)cc1 (stereo not given)	19	-15	-15%	-2.1%	12%	-2	19%
CCCSc1nnc(CSc2ncccn2)n1C	-2.4	-6	0%[15.4 µM]	0.8%	15%	17	1%
COc1ccc(CCC(=O)N/N=C\c2cccs2)cc1	-1.2	-10	24%	0.0%	-6%	-7	-16%
COc1cc2[nH]c(C(=O)Nc3ccc4c(c3)OCCO4)cc2c(OC)c1OC	.	-17	8%	.	-3%	-2	0%
COc1ccc(S(=O)(=O)NC(C)C)cc1-n1cnnn1	-4.0	-1	3%[15.4 µM]	-0.5%	17%	-6	16%

# Compound activity: PubChem, National Center for Advancing Translational Sciences (NCATS)
